# OX1R antag – blocks the human orexin 1 receptor; inhibition, % at 5 µM; AID 434989; 330,000 tested, 0.43% active; CHO/OX1R cells, Fluo-8 calcium fluorescence, orexin A; O43613;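 active = inhibition above its plate's threshold, mean inhibition of all tested compounds on the plate plus 3 SD, cut at about 37% in these data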;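 note: 0% = orexin A challenge wells and 100% = SB-334867-A antagonist wells; not every result past the cut was called active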
# Target sequence (O43613 whole entry, looked up): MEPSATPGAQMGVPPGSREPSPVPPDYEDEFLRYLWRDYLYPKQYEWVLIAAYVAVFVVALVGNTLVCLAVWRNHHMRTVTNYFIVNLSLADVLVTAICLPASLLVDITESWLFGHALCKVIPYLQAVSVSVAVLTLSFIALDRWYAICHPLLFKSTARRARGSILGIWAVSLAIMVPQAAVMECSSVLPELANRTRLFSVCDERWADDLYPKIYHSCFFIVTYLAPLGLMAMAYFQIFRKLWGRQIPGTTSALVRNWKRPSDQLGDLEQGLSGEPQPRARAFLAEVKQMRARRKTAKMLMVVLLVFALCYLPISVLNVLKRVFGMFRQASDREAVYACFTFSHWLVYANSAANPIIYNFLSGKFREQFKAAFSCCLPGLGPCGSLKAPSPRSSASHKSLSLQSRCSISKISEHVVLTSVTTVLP
# Starred values were filed as active, the others as inactive. Not all compounds are listed; most or all hits stand in other tables.
mol | OX1R antag
CC(C)CN1CCN(Cc2c(F)cccc2Cl)CC1CCO (configuration not stated) | 2.5
COc1cc(C2SCC(=O)Nc3c2c(=O)[nH]n3C2CCCCCC2)cc(OC)c1OC (configuration not stated) | -15.2
Cc1ccccc1N1C(=O)/C(=C/c2ccco2)C(=O)NC1=S | -8.9
O=C(c1ccccc1F)N1CCC2(CC1)OCCO2 | -4.7
COc1ccc(Oc2cc(NC(=O)c3nn(C)cc3[N+](=O)[O-])cc([N+](=O)[O-])c2)cc1 | -4.0
c1cncc(C2Nc3cccc4cccc(c34)N2)c1 | -10.4
O=C(c1cc(C(=O)NCc2ccc(Cl)cc2)c(=O)n(Cc2ccc(Cl)cc2)c1)c1cc(F)ccc1O | -6.8
Cc1cc(OCc2ccc([N+](=O)[O-])cc2)c2c3c(c(=O)oc2c1)CCCC3 | 6.5
C=C[C@H]1CN2CC[C@H]1C[C@H]2[C@H](O)c1ccnc2ccccc12 | -16.6
CCC(=O)Nc1ccccc1 | -6.0
NCC(O)c1cc(O)c(O)cc1F (configuration not stated) | -4.0
NS(=O)(=O)OC(CCc1ccccc1)C(Cl)(Cl)Cl (configuration not stated) | -5.0
COc1cccc(C(=O)N2C[C@H]3C[C@@H](C2)c2cccc(=O)n2C3)c1 | 6.2
O=Cc1c(C(=O)O)n(Cc2ccccc2Cl)c2ccccc12 | -20.0
Cc1cc(N2C(=O)C3CCCN3C2c2sccc2C)no1 (configuration not stated) | -19.5
CCn1c(O)c(C=NCc2ccccc2)c(=O)[nH]c1=S | -21.9
CCC(=Nc1ccc(OC)cc1OC)c1c(O)n(C2CCCCC2)c(=O)[nH]c1=O | -26.2
CCCCN1C(=O)NC(=O)C2(Cc3ccccc3N3CCOCC32)C1=O (configuration not stated) | -23.1
N#Cc1c(/N=C/C2C(=O)NC(=S)NC2=O)sc2c1CCCC2 | -14.3
Cc1cc(C(=O)Nc2ccc3c(c2)OCCO3)nn1C(C)(C)C | -15.5

# Next part
mol | OX1R antag
N#CC(C#N)=Cc1cccnc1 | -5.7
CCOC(=O)C1(CCOc2ccccc2)CCN(C(C)CSC)CC1 (configuration not stated) | -27.9
CC1CCN(CC#CCOc2ccc(Cl)cc2)CC1 | -29.0
CN(C)CCSC1c2ccccc2CSc2ccccc21 (configuration not stated) | -9.1
O=c1c2ccccc2nc(-c2ccoc2)n1-c1ccccc1 | -3.9
COC(=O)C1=C(c2cccc(OC)c2OC)C[C@@H]2CC[C@H]1N2C(=O)NC1CC1 | -8.1
CN1CCN(c2nc(N)c(Br)c(Cl)n2)CC1 | -4.0
O=C(c1cn(Cc2ccccc2)c2ccccc12)C1CC1 | -18.2
CSc1ccc(CNC2CN3CCC2CC3)cc1 (configuration not stated) | -21.0
C(=NC12CN3CN(CN(C3)C1)C2)c1cccs1 | -2.9
CCNC(=S)NCCC1=c2ccccc2=N/C1=C\c1c(O)n(C)c(=O)n(C)c1=O | -23.0
CC(C)C12CN3CCN(CC(C3)C1O)C2 (configuration not stated) | -8.5
CCOP(=O)(OCC)C(O)c1cccnc1 (configuration not stated) | 3.0
CCCCOC(=O)COc1cc(C)cc2oc(=O)c3c(c12)CCC3 | -14.0
CNCCc1c(C)n[nH]c1C | -6.7
COc1ccc(C2NCc3ccccc3-n3cccc32)cc1 (configuration not stated) | -15.7
Nc1ccc(CCN2CCCC2)cc1 | -5.1
O=C(OC1CCN(CCCl)CC1)C(c1ccccc1)c1ccccc1 | -14.4
Cc1ccc(Cn2cc(C=O)c3ccccc32)cc1 | -23.2
Cn1ccnc1P(=S)(c1nccn1C)N1CCOCC1 | 7.5

# 24 successive compounds already listed:
mol | OX1R antag
O=Cc1c(C(=O)O)n(Cc2ccccc2Cl)c2ccccc12 | -20.0
Cc1cc(N2C(=O)C3CCCN3C2c2sccc2C)no1 (configuration not stated) | -19.5
CCn1c(O)c(C=NCc2ccccc2)c(=O)[nH]c1=S | -21.9
CCC(=Nc1ccc(OC)cc1OC)c1c(O)n(C2CCCCC2)c(=O)[nH]c1=O | -26.2
CCCCN1C(=O)NC(=O)C2(Cc3ccccc3N3CCOCC32)C1=O (configuration not stated) | -23.1
N#Cc1c(/N=C/C2C(=O)NC(=S)NC2=O)sc2c1CCCC2 | -14.3
Cc1cc(C(=O)Nc2ccc3c(c2)OCCO3)nn1C(C)(C)C | -15.5
N#CC(C#N)=Cc1cccnc1 | -5.7
CCOC(=O)C1(CCOc2ccccc2)CCN(C(C)CSC)CC1 (configuration not stated) | -27.9
CC1CCN(CC#CCOc2ccc(Cl)cc2)CC1 | -29.0
CN(C)CCSC1c2ccccc2CSc2ccccc21 (configuration not stated) | -9.1
O=c1c2ccccc2nc(-c2ccoc2)n1-c1ccccc1 | -3.9
COC(=O)C1=C(c2cccc(OC)c2OC)C[C@@H]2CC[C@H]1N2C(=O)NC1CC1 | -8.1
CN1CCN(c2nc(N)c(Br)c(Cl)n2)CC1 | -4.0
O=C(c1cn(Cc2ccccc2)c2ccccc12)C1CC1 | -18.2
CSc1ccc(CNC2CN3CCC2CC3)cc1 (configuration not stated) | -21.0
C(=NC12CN3CN(CN(C3)C1)C2)c1cccs1 | -2.9
CCNC(=S)NCCC1=c2ccccc2=N/C1=C\c1c(O)n(C)c(=O)n(C)c1=O | -23.0
CC(C)C12CN3CCN(CC(C3)C1O)C2 (configuration not stated) | -8.5
CCOP(=O)(OCC)C(O)c1cccnc1 (configuration not stated) | 3.0
CCCCOC(=O)COc1cc(C)cc2oc(=O)c3c(c12)CCC3 | -14.0
CNCCc1c(C)n[nH]c1C | -6.7
COc1ccc(C2NCc3ccccc3-n3cccc32)cc1 (configuration not stated) | -15.7
Nc1ccc(CCN2CCCC2)cc1 | -5.1

# Next part:
mol | OX1R antag
O=c1c2ccccc2nc(CSc2ncnc3nc[nH]c23)n1-c1ccccc1 | -5.9
COC(=O)C1=C(c2ccccc2)C[C@@H]2CC[C@H]1N2C(=O)N1CCC(C)CC1 | -23.2
Fc1ccc2c(c1)nnn2C1CCN(Cc2nnnn2CCc2ccccc2)CC1 | -13.3
O=C(c1cc(-c2ccccc2)nc2ccccc12)N1CCC2(CC1)OCCO2 | -25.8
Cn1c(O)c(Cc2ccc(OCc3ccccc3)cc2)c(=O)n(C)c1=O | -8.6
Clc1cccc(C2NCCc3[nH]cnc32)c1 (configuration not stated) | -18.6
Cc1ccc(N2C(=O)NC(=O)/C(=C\c3ccc([N+](=O)[O-])o3)C2=O)cc1 | -17.3
C=CCn1c(O)c(C(CC)=Nc2ccc3c(c2)CCC3)c(=O)[nH]c1=O | -42.1
O=[N+]([O-])c1ccccc1CNCCc1ccc(F)cc1 | -19.0
C[C@]12CCC(OC(=O)CCC(=O)O)CC1=CCC1C2CC[C@]2(C)C(=O)CCC12 (some centres not stated) | 16.5
Cc1cccc(C)c1OC(=O)Cc1ccccc1 | 4.9
CCOP(=O)(OCC)C(O)c1ccc(OC)cc1 (configuration not stated) | -14.0
CCOC(=O)C(NC(C)=O)C(OC(C)=O)c1cccc(N(CCCl)CCCl)c1 (configuration not stated) | -3.3
COc1ccc2c(c1)[nH]c1c(C)nccc12 | 3.8
CCCCOCCCN1C(C)=CC(=C2C(=O)NC(=S)NC2=O)C=C1C | -15.6
CC(Cc1ccccc1)NCCC(c1ccccc1)c1ccccc1 (configuration not stated) | -20.4
CCOC(=O)c1ccc(N=Cc2c(O)n(-c3ccccc3F)c(=S)[nH]c2=O)cc1 | -22.5
C=CCn1c(O)c(C(CC)=NCCC2=CCCCC2)c(=O)[nH]c1=O | -32.7
Cc1cc(OC(=O)N(C)C)n(-c2ccccc2)n1 | -20.8
O=C1NC(=O)N(c2ccccc2)C(=O)/C1=C\c1ccccc1[N+](=O)[O-] | -11.7

# Later entries:
mol | OX1R antag
O=C(Nc1cccc(OC(=O)N2CCCCC2)c1)N1CCOCC1 | 5.6
Cn1c(N2CCNCC2)nc2ccccc21 | -11.0
COCC(C)OC(=O)c1c(N)n(Cc2ccco2)c2nc3ccccc3nc12 (configuration not stated) | -0.1
CC(=O)Nc1ccc2c(c1)CC1(C(=O)N(C)C(=O)N(C)C1=O)C1CCCN21 (configuration not stated) | 9.7
CCN1CCN(c2cc(N3CCCC3)c(F)cc2[N+](=O)[O-])CC1 | -20.8
Cc1cccc(CN2CCCC(C(=O)c3cccc(OC(C)C)c3)C2)n1 (configuration not stated) | -28.2
Cc1sc(-n2c(C)cc(C=C3C(=O)NC(=O)NC3=O)c2C)c(C#N)c1C | -0.2
O=C1CC(N2CC=C(c3ccc(F)cc3)CC2)C(=O)N1c1ccc(F)cc1 (configuration not stated) | -4.3
O=C1C2CCCN2C(c2cccnc2)N1c1ccc(Cl)c(Cl)c1 (configuration not stated) | -26.8
CC(C)c1ccc(-n2c(O)c(C=NCCN3CCNCC3)c(=O)[nH]c2=S)cc1 | 4.0
CN1CC[C@@]23CCCC[C@@H]2[C@@H]1Cc1ccc(O)cc13 | -5.2
COCCN(C(=O)COC(=O)Cc1ccccc1)c1c(N)n(Cc2ccccc2)c(=O)[nH]c1=O | -21.4
O=C(CN1CC=C(c2ccccc2)CC1)NC(=O)NC1CCCCC1 | -12.1
COc1ccc(C=C2C(=O)N(C)C(=O)N(C)C2=O)cc1COc1ccc(NC(C)=O)cc1 | -1.5
O=C(CN1CC(c2ccccc2)CC1=O)Nc1cccc(F)c1 (configuration not stated) | -14.3
CC1CCCCN1Cc1cccnc1 (configuration not stated) | 6.6
O=P(NCc1ccccc1)(Oc1ccccc1)Oc1ccccc1 | -13.4
CC(=NCCc1c[nH]c2ccccc12)c1c(O)n(Cc2ccccc2)c(=O)[nH]c1=O | -20.5
CCOC(=O)C1CCN(/C=C2\C(=O)NC(=S)N(CC)C2=O)CC1 | -21.5
O=c1[nH]c(=O)n(Cc2ccco2)c(O)c1C=NCCCn1ccnc1 | -3.2

# Some values from the list:
# `CC1CCCCN1Cc1cccnc1` (configuration not stated) | OX1R antag = 6.6
# `O=C1C2CCCN2C(c2cccnc2)N1c1ccc(Cl)c(Cl)c1` (configuration not stated) | OX1R antag = -26.8

# Next entries
mol | OX1R antag
O=c1c2ccccc2nc(-c2ccccc2)n1-n1cccc1 | -15.3
COc1ccc(Br)cc1CN1CCN(C(=O)Cc2ccccc2)CC1 | -17.0
COC(=O)Cn1cc(C=C2C(=O)N(C)C(=O)N(C)C2=O)c2ccccc21 | -21.2
Cc1cc(OCC(=O)N2CCCN(C)CC2)ccc1Cl | -10.1
CN1C(=O)C(=Cc2ccc(N3CCOCC3)c([N+](=O)[O-])c2)C(=O)N(C)C1=O | -34.3
CCC(=O)c1cn(Cc2ccccc2)c2ccccc12 | -19.1
COc1cc(CN=Cc2c(O)n(C(C)(C)C)c(=O)[nH]c2=O)cc(OC)c1 | -17.1
OC(CCNCCc1c[nH]c2ccccc12)C(F)(F)F (configuration not stated) | -14.6
O=c1[nH]c(=O)n(Cc2ccccc2)c(O)c1C=Nc1ccc(CN2CCOCC2)cc1 | -28.4
COc1ccc(/C=C2/C(=O)NC(=O)N(c3ccccc3)C2=O)cc1CN1C(=O)c2ccccc2C1=O | -15.0
CC(Cc1ccccc1)NC(=O)Cc1ccc(N(C)C)cc1 (configuration not stated) | -19.3
Cc1cccc(CN2CCN(c3ccc(Cl)cc3)CC2)c1 | -22.4
CCN1CCN(Cc2cc(C(C)(C)C)c(O)c(C(C)(C)C)c2)CC1 | -17.0
COC(=O)c1c(C)[nH]c(C(=O)C(Cc2ccccc2)N(C)C)c1C (configuration not stated) | -24.0
O=C(CCC(=O)N1CCOc2ccc(Cl)cc21)N1CCC2(CC1)OCCO2 | -4.5
CC(C)(C)N(NC(=O)c1ccccc1)C(=O)c1ccccc1 | -3.1
CC(=NCc1ccc2c(c1)OCO2)c1c(O)n(C)c(=O)n(C)c1=O | -14.0
Cc1ccccc1Cc1c(C)nc2nc(SCC(=O)N3CCC4(CC3)OCCO4)nn2c1C | -24.7
CN1C(=O)C(c2ccccc2)C(=O)N(C)C1=O | -9.5
O=C(Cc1ccccc1)OC(COCc1ccccc1)CN1CCOCC1 (configuration not stated) | -5.5

# New compounds follow
mol | OX1R antag
COc1cccc(-n2c(O)c(C=Nc3c(C)n(C)n(-c4ccccc4)c3=O)c(=O)[nH]c2=O)c1 | -7.5
N#Cc1ccccc1Cn1cc(C(=O)c2ccco2)c2ccccc21 | -23.9
CCOP(=O)(OCC)C(NC(C)=O)C(Cl)(Cl)Cl (configuration not stated) | -2.2
O=c1[nH]c(=O)n(-c2ccccc2Cl)c(O)c1C=NCCN1CCCCC1 | -11.2
O=c1c2ccccc2nc(/C=C/c2ccco2)n1-c1ccccc1O | -24.6
COCCNC(=O)c1c(NC(=O)c2ccc(Br)o2)n(Cc2ccccc2)c2nc3ccccc3nc12 | -12.1
C=CCn1c(O)c(C=NCCN2CCNCC2)c(=O)[nH]c1=O | -19.3
COC(=O)[C@]1(C)C[C@H]1[C@H](NP(=O)(c1ccccc1)c1ccccc1)c1ccccc1 | -17.1
Cc1ccc(OCC(=O)Nc2ccc(Cl)cc2C(=O)c2ccccc2)cc1 | -35.7
CC(C)n1c(=O)c(C=Nc2ccc(Br)cc2)c(O)n(Cc2ccco2)c1=O | -23.2
CCc1ccc(N2C(=O)NC(=O)/C(=C/c3cccn3CCOc3ccc(C)cc3)C2=O)cc1 | -20.4
O=C(c1ccccc1)C(CN1CCCC1)c1ccccc1 (configuration not stated) | -5.7

# From PubChem
